# BJeLR lethal: BJeLR cell viability loss; BJeLR (HRASV12) viability, CellTiter-Glo ATP luminescence, 48 h; reference of the scale not given here; inhibition, % (test concentration not listed); actives 0.17% (n = 300,000);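 active = replicate mean above 50%; inconclusive = above 50% but judged a plate artefact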;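 note: 50 nL library stock added to about 25 µL; numbers are from one replicate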
# Sa ugtP lethal: growth inhibition of S. aureus ugtP deletion strain | S. aureus RN4220 ugtP deletion, OD600 growth, 16 h; some inactives read as strong as hits | growth inhibition, % (test concentration not listed) | actives 0.54% (n = 330,000) | AID 1259309;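 active = z-score under -3 and OD600 up to 0.15 on both plates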;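 note: plate controls were untreated wells for no effect and antibiotic for full effect; wells of about 80 µL received 100 nL stock; the first replicate is given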
# PrP 5UTR inh: suppresses PrP 5' UTR mRNA reporter expression. cell-based PrP 5' UTR mRNA reporter, plate reader. inhibition, % (no concentration beside the values). actives 0.35% (n = 340,000). AID 488862;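 active = every replicate at 50% or more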;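 note: 0 = median of the neutral control wells; tested in H4 reporter cells; numbers are from one replicate; inactives centre near -14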
# Mtb hypoxia inh: inhibitors of hypoxia-regulated fluorescent reporter in Mycobacterium tuberculosis. M. tuberculosis hypoxia-regulated fluorescent reporter, fluorescence. fluorescence inhibition, % (concentration not given with the values). actives 0.1% (n = 300,000). AID 1159583;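 active = 35 to 45% if threefold the growth effect, above 45% if 1.5-fold the growth effect; inactive = the rest, general growth blockers included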;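 note: wells of about 50 µL received 100 nL stock; 0% = vehicle wells and 100% = reference inhibitor wells; whole bacteria with a GFP reporter of the hypoxia response; strong numbers were not always called active; many hits fall short of the cut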
# Sa RN4220 lethal: kills Staphylococcus aureus RN4220; S. aureus RN4220 growth, OD600, 16 h; AID 1259311; inhibition, % (no concentration beside the values); actives 0.33% (n = 330,000);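 active = z-score of -3 or lower and OD600 up to 0.18 on both plates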;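 note: plate controls were untreated cells for no effect and reference antibiotic for full effect; stock transfer was 100 nL into about 80 µL; one replicate is shown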
# Autofluor counter: compound fluorescence in toxin protease inhibitor counterscreen | compound autofluorescence counterscreen, microsphere flow cytometry; active compounds read high | fluorescence intensity (test concentration not listed) | actives 3.1% (n = 360,000) | AID 624483;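 active = at least 3 SD above the mean of all compounds, about 16000 in these data; inconclusive = too few beads counted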;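 note: 100 nL of 1 mM stock went into each well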
# Mtb hypoxia inh growth: further read-out of Mtb hypoxia inh, marked with its call; growth inhibition, %; measured here: M. tuberculosis growth (absorbance);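 0% = vehicle and 100% = reference antibiotic; read after six days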
# Numbers without * were called inactive; ? = inconclusive; . = not tested or not shown.
# Below each SMILES: BJeLR lethal	Sa ugtP lethal	PrP 5UTR inh	Mtb hypoxia inh	Mtb hypoxia inh growth	Sa RN4220 lethal	Autofluor counter
COC(=O)/C=C1\SC(=NC(=O)c2ccc(OC)cc2)NC1=O
    -7	10	-9	-3	-2	8.4	6256
O=C(Nc1cc(S(=O)(=O)Nc2ccccc2Cl)ccc1O)c1sc2cc(Cl)ccc2c1Cl
    -2	-11	-14	-2	-7	-3.1	2332
O=C1S/C(=C/c2ccc(N3CCOCC3)o2)C(=O)N1Cc1c(F)cccc1Cl
    8	-6	-13	-3	4	-2.4	9254
O=C(c1cccs1)N(Cc1cc2ccccc2[nH]c1=O)CC1CCCO1 (configuration not stated)
    -7	-1	-19	-1	-4	2.8	4899
CC(CC(=O)N1CCc2ccccc21)c1ccccc1 (configuration not stated)
    6	-1	-2	.	.	5.7	2752
CCC(=O)Nc1cccc2cccnc12
    -2	3	-30	-2	-1	6.8	4331
CCOc1ccccc1C1C2CCCCC2(O)CCN1C(=O)c1cccs1 (configuration not stated)
    12	10	-1	-3	6	5.8	2164
COc1ccc(CCNC(=O)c2ccc(CSc3ccccc3)o2)cc1
    -13	-5	-12	5	9	4.0	4037
CC(=O)N1C(Nc2ccc(Cl)cc2)CCN1c1ccccc1 (configuration not stated)
    0	-1	-17	4	10	0.1	4257
COc1ccc(N2CCN(CC(O)COc3ccc(C)cc3C)CC2)cc1 (configuration not stated)
    3	11	-9	9	2	1.8	4269
CCC(C)(C)C1CCc2nc3ccccc3c(C(=O)OC(C)C(=O)Nc3c(C)n(C)n(-c4ccccc4)c3=O)c2C1 (configuration not stated)
    -14	-4	-27	-1	3	-0.6	2976
COc1ccc(C(=O)c2cn(-c3cccc(Br)c3)nc2C(C)=O)cc1
    -9	-9	-2	-1	3	6.9	3051
CCc1ccc(N2CC(C(=O)Nc3cccnc3)CC2=O)cc1 (configuration not stated)
    -2	9	3	.	.	1.1	5196
CNC(=O)c1ccc(NC(=O)CCc2c(C)noc2C)cc1
    .	0	-23	3	-1	1.3	6019
Cc1ccc(/C=C2\SC(=S)N(c3cccnc3)C2=O)o1
    7	12	-23	.	.	1.9	3545
O=S(=O)(NCCc1cn2ccccc2n1)c1ccc2c(c1)OCCO2
    -7	2	-14	-1	4	6.7	4468
COc1ccc(NC(=O)CSc2ncnc3c2cnn3CCc2ccccc2)cc1
    -4	0	-25	.	.	2.4	2225
COc1ccc(NC(=O)CN(C)C(=O)CCc2ccccc2)cc1
    -8	2	-11	-6	6	-4.2	2929
CCN(CC)c1ccc(C=NN=C(c2ccccc2)c2ccccc2)c(O)c1
    .	9	.	13	3	-5.2	.
Cc1ccccc1C(=O)Nc1c(C)[nH]c(=O)[nH]c1=O
    -2	3	-38	1	0	4.9	4089
O=C(CCn1c(=O)c2ccccc2n(CC(=O)N2CCN(c3ccccc3)CC2)c1=O)NCc1ccco1
    -2	4	-13	-1	2	1.8	5020
Cc1ccccc1NC(=O)c1csc2c1CCCC2
    -2	-3	-26	-3	-8	-0.4	20804*
Cc1cc(C(=O)Nc2c(C)n(C)n(-c3ccccc3)c2=O)cs1
    -7	4	-11	14	7	2.0	9857
O=S(=O)(NCc1ccccn1)c1ccc(Cl)s1
    2	6	-16	12	8	1.7	3522
COC(=O)C1=C(c2ccccc2OCc2ccccc2)C[C@@H]2CC[C@H]1N2C(=O)NCc1ccc(C(F)(F)F)cc1
    .	-5	-15	12	6	-31	4262
CN(CCc1ccccn1)C(=O)CCC1CCCN(C(=O)c2c(F)ccc(F)c2F)C1 (configuration not stated)
    -10	8	-11	7	-9	2.9	6052
CCN(CC)CCNS(=O)(=O)c1ccc(OC)c(Br)c1
    -4	3	-5	.	.	-1.1	.
COc1cc(N(C)C)c([N+](=O)[O-])cc1C(=O)N1CCOCC1
    6	0	-44	-5	3	-3.1	4486
Nc1nonc1-n1nnc(C(=O)NN=Cc2ccccn2)c1-c1ccccc1
    .	-3	.	-5	-5	1.9	.
COc1ccc(C(CNC(=O)c2cc3ccccc3o2)N2CCCC2)cc1 (configuration not stated)
    .	2	5	1	-6	1.8	5576
CCOC(=O)N1CCN(c2ccc(S(=O)(=O)N3CCOCC3)cc2[N+](=O)[O-])CC1
    -8	7	-7	4	6	2.6	5576
Cc1ccc(NC(=O)CSc2ncnc3ccccc23)cc1S(=O)(=O)N1CCOCC1
    11	9	-2	-1	6	2.2	4870
Cc1cc(C)n(-c2cc(O)c(-n3nc(C)cc3C)cc2O)n1
    -2	-3	-20	-1	-1	-5.3	4483
Cn1cc(S(=O)(=O)NCc2cccs2)c(=O)n(C)c1=O
    -2	3	-13	3	1	4.4	5711
Nc1ccc(S(=O)(=O)Nc2nccs2)cc1
    .	-4	-24	.	.	8.2	5676
Cc1ccc(S(=O)(=O)N2CCOCC2)cc1NC(=O)c1cc2c(s1)CCC2
    5	-11	-19	7	8	1.0	8941
CN(c1ccccc1)S(=O)(=O)c1ccc(C(=O)NCc2cccs2)cc1
    6	-3	-9	-1	14	-0.5	4729
Cc1ccc(S(=O)(=O)N2CCN(C(=O)Cn3c(=O)cnc4ccccc43)CC2)cc1
    .	-4	-6	8	-1	0.9	4543
O=C(NN=Cc1ccncc1)c1ccccc1
    .	8	.	12	14	2.1	.
CCOc1ccc(CCNS(=O)(=O)c2ccc3c(c2)NC(=O)CO3)cc1OCC
    -12	5	7	-3	1	2.2	6090
CCn1c(N2CCN(S(=O)(=O)c3ccccc3C(F)(F)F)CC2)nc2ccccc21
    -7	-1	-2	3	6	3.1	?
CCCCN1C(=N)N(C(C)CN2CCCC2CN2C(N)=NCC2Cc2ccccc2)CC1C(C)CC (configuration not stated)
    .	2	.	16	25	1.0	.
CCc1ccc(-n2c(=S)sc3c(=O)n(-c4ccccc4OC)c(=S)[nH]c32)cc1
    -2	12	-17	11	7	23	4381
O=C(CCNS(=O)(=O)c1cccc(C(F)(F)F)c1)NCc1ccco1
    .	11	-22	22	46	5.4	2912
CC[C@H](C)[C@H](NC(=O)c1ccccc1)C(=O)Nc1ccc(S(=O)(=O)Nc2cc(C)nc(C)n2)cc1
    2	15	-12	3	12	5.0	?
FC(F)Sc1ccc(Nc2ncnc3nc[nH]c23)cc1
    1	3	-88	2	-3	3.1	23588*
C/C(=N/NC(=O)c1cc(-c2ccc(Br)s2)[nH]n1)c1ccco1
    -2	.	4	.	.	.	2010
O=C(c1ccc(CNS(=O)(=O)c2ccccc2)cc1)N1CCN(Cc2ccccc2)CC1
    9	0	-10	12	1	7.3	9281
O=C(c1c[nH]c(=O)n(-c2ccccc2)c1=O)N1CCc2ccccc21
    -9	3	-2	6	-7	-1.9	9398
COc1ccc(C(=O)NC(=S)Nc2ccccc2N2CCN(S(C)(=O)=O)CC2)cc1OC
    -8	-1	-2	9	3	6.8	22107*

# (cont.)
# Below each SMILES: BJeLR lethal	Sa ugtP lethal	PrP 5UTR inh	Mtb hypoxia inh	Mtb hypoxia inh growth	Sa RN4220 lethal	Autofluor counter
CC(=O)c1ccc(N(C(=O)CNC(=O)c2ccco2)C(C(=O)NCC2CCCO2)c2ccccc2)cc1 (configuration not stated)
    6	7	-9	11	5	4.9	4768
Cc1cc(NC(=O)COC(=O)c2cccc(S(=O)(=O)N(C)C3CCCCC3)c2)no1
    3	4	-26	6	7	4.1	4518
O=C(c1cc(F)ccc1F)C1CCCN(CCCc2ccccc2)C1 (configuration not stated)
    -11	1	-32	6	8	0.6	2448
O=C1NC(=O)N(c2ccc3c(c2)OCO3)C(=O)/C1=C/c1ccsc1
    1	4	-12	14	3	3.0	3087
COC(=O)c1cn(NC(=O)Cc2ccc(Cl)cc2)c(=O)c2ccccc12
    5	2	-10	12	7	5.1	2556
COc1ccc(/C=N/Nc2ncc(Br)cn2)c(OC)c1
    8	.	-93	.	.	.	4819
CS(=O)(=O)c1ncc(Cl)c(C(=O)Nc2ccc(OC(F)F)cc2)n1
    18	.	-12	.	.	.	3596
CCn1cc(CNC(=O)c2ccc(Cl)c([N+](=O)[O-])c2)c(C)n1
    8	.	-11	.	.	.	2619
Cc1ccc(C)c2nc(Cl)c(C#N)cc12
    0	10	-16	-1	2	2.5	4335
CCc1nnc(NC(=O)C2CCCN2S(=O)(=O)c2ccccc2)s1 (configuration not stated)
    -3	1	-8	-3	17	1.8	10106
CC(C)C(OC(=O)CCC(=O)Nc1nccs1)C(=O)NC1CCCCC1 (configuration not stated)
    5	3	-4	7	2	2.3	4295
Cc1cccc(-n2ccnc2SCC(=O)c2c(N)n(C3CC3)c(=O)[nH]c2=O)c1C
    .	8	-2	3	-4	3.8	6296
COc1ccc(C(=O)COC(=O)Cn2[nH]c(=O)c3ccccc3c2=O)c(OC)c1
    -2	.	-6	.	.	.	4233
CCOc1ccccc1NC(=O)NNC(=O)c1ccc2ccccc2c1
    10	1	-2	6	4	-1.5	4715
Cc1cc(C)n(C(=O)c2ccc(NC(=O)C3CC3)cc2)n1
    2	9	-13	12	12	6.3	4658
O=C(CN1CCOc2ccccc21)NC1CCN(Cc2ccccc2)CC1
    2	7	-15	.	.	0.6	6480
Cc1nc(NC(=O)COC(=O)/C=C/c2ccco2)c(Cl)cc1Cl
    .	-1	-8	8	11	2.7	3568
Cc1nc2ccccc2nc(C)c1=NO
    -12	-1	-10	-2	-5	2.4	4249
CC(N)(C(=O)O)c1cccc(OCc2cccc(Cl)c2)c1 (configuration not stated)
    6	3	-42	-5	5	3.7	3578
CCCS(=O)(=O)N1CCCC(C(=O)NCCN(CC)c2ccccc2)C1 (configuration not stated)
    6	3	-20	8	4	4.2	.

# Retrieved by structure from the entries so far, 2 records:
# Below each SMILES: BJeLR lethal	Sa ugtP lethal	PrP 5UTR inh	Mtb hypoxia inh	Mtb hypoxia inh growth	Sa RN4220 lethal	Autofluor counter
CCN(CC)c1ccc(C=NN=C(c2ccccc2)c2ccccc2)c(O)c1
    .	9	.	13	3	-5.2	.
COC(=O)C1=C(c2ccccc2OCc2ccccc2)C[C@@H]2CC[C@H]1N2C(=O)NCc1ccc(C(F)(F)F)cc1
    .	-5	-15	12	6	-31	4262

# (further entries)
# Below each SMILES: BJeLR lethal	Sa ugtP lethal	PrP 5UTR inh	Mtb hypoxia inh	Mtb hypoxia inh growth	Sa RN4220 lethal	Autofluor counter
C=CCSc1nnc(NC(=O)COc2ccccc2)s1
    -2	3	-5	-2	6	6.0	4213
CC(=O)Nc1ccc(NC(=O)CCCc2ccccc2)cc1
    6	4	-14	6	2	-1.2	3121
O=C1CN(C(=O)CSc2nnc(-c3ccccc3)n2Cc2ccc3c(c2)OCO3)c2ccccc2N1
    -1	2	-2	-3	5	-0.3	3917
O=C(NC1CCSC1=O)c1ccccc1 (configuration not stated)
    6	2	-30	0	6	1.8	9349
CCC(=O)n1nc(-c2ccccc2)nc1SCC(=O)Nc1ccc(C)cc1
    1	-7	-4	-10	-10	15	21542*
COc1ccc2c(C)cc(N3CCCCCC3)nc2c1
    2	6	-33	7	11	13	4213
Cc1ccc(CNC(=O)c2ccc(N3CCC4(CC3)CC(c3ccccc3)=NO4)c(NC(=O)c3ccc(Br)cc3)c2)cc1
    5	2	-1	-6	8	7.8	3752
COC(=O)C1=C(c2cc3ccccc3o2)CC2CCC1N2C(=O)N1CCOCC1 (configuration not stated)
    .	5	.	21	15	8.6	.
Nc1nc2ccc(NC(=O)c3ccco3)cc2s1
    6	-1	-68	12	-6	-1.7	6035
CC(C)=NN=C(c1cccc([N+](=O)[O-])c1)C12CN3CN(CN(C3)C1)C2
    .	7	.	5	-3	6.2	.
COc1ccc(C(=O)c2c(NC(C)=O)sc3c2CCN(C(=O)OC(C)(C)C)C3)cc1
    1	.	-3	.	.	.	3338
O=C(NC1CCCCC1)[C@H](O)[C@@H](O)C(=O)NC1CCCCC1
    -2	.	-6	.	.	.	3019
Cc1ccc(S(=O)(=O)Nc2ccccc2C(=O)N2CCCC2)cc1
    4	-1	-12	6	18	2.8	6129
Cc1ccc(Cn2ccsc2=NC(=O)COC(=O)C(C)C)cc1
    7	3	-4	-1	9	-2.9	5944
O=C(CCOc1ccccc1)Nc1ccnn1C1CCN(Cc2ccc(O)cc2)CC1
    -2	6	-24	0	1	2.1	5860
COc1ccc2c(c1)cc(C)c1nnc(SCC(=O)N3CCN(C(=O)c4ccco4)CC3)n12
    -10	4	.	10	13	2.3	.

# Compound activity deposited in PubChem by several laboratories.
